# Screening results deposited in PubChem BioAssay by National Center for Advancing Translational Sciences (NCATS).
# Sfp inh = Sfp phosphopantetheinyl transferase inhibition | Q9F4F7 | Biochemical Sfp PPTase activity, qHTS | Potency, µM, for the others: max response, negative = inhibition, hits mostly inhibitors | 310,000 compounds, 3.5% hits | AID 1490; active means well fitted inhibition curve with a large enough effect; inconclusive means small, poorly fitted or top-dose-only effect, or another doubt; inactive means no such curve, though single readings can be large or run the other way;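 further: the enzyme is Sfp with the accession as filed and its product quenches rhodamine fluorescence; potency means the concentration at half of the fitted maximal effect; 0% = enzyme reaction without inhibitor and -100% = no enzyme wells; top concentration of the series not given in the record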
#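 After 15 min at room temperature with compound, 15 nM Sfp received 5 uM rhodamine-CoA plus 12.5 uM BHQ-2-ybbR (50 mM Hepes pH 7.6, 10 mM MgCl2). Rate came from the fluorescence difference over 30 min, ex 525/em 598 nm.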
# PINK1 expr mod = modulators of PINK1 expression | PINK1 immunofluorescence, high-content cytometry, 24 h | AID 624263 | 410,000 compounds, 0.2% hits | Potency, µM (titrated, usually from 76.6 µM), for the others: top-dose activation (PINK1 increase), most hits filed as activators; active = well fitted activation curve with a large enough effect; inconclusive = small, poorly fitted or top-dose-only effect; inactive = flat fitted curve, though single readings scatter; cell line not stated here;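 further: potency means the concentration at half of the fitted maximal effect; % of control where 0% means no effect; nearly all actives have a fitted effect of over 65% in size; a mitochondrial uncoupler was the plate control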
#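 Cells are seeded, rested 12 hours, then given compound at five concentrations or DMSO for 24 hours. After fixation, blocking and antibody staining, PINK1 amount and mitochondrial localization are scored; CCCP serves as control.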
# ClpP mod = qHTS Assay for Activators of ClpP; ATP-dependent Clp protease proteolytic subunit (Bacillus subtilis (strain 168)), P80244; purified B. subtilis ClpP, FRET peptide cleavage, 20 min; Potency, µM (top dose mostly 57.5 µM), for the others: at the top dose activity change, negative = active; 340,000 compounds, 1.9% hits; AID 651965, 2013; active = well fitted falling curve with a large enough effect; inconclusive = small, poorly fitted or top-dose-only effect; inactive = no such curve, though single readings can be large or run the other way; further: potency means the concentration at half of the fitted maximal effect; the source files actives as falling curves though it sought activators and does not explain the sign; nearly all actives have a fitted effect of over 65% in size; many hits overshoot -100%
# Target sequence (P80244 whole entry, looked up): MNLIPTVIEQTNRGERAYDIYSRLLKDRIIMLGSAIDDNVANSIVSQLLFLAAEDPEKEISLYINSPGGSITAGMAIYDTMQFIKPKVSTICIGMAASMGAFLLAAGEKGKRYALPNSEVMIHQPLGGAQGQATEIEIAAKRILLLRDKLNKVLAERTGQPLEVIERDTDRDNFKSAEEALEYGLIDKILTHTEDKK
#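 Buffer: 100 mM Tris/HCl pH8, 100 mM KCl, 0.05% low protease BSA, 2.5% glycerol, 0.01% Tween-20. ClpP 10 microg/mL final; 20 min RT; delta FRET normalized to ADEP and DMSO controls.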
# TRPML1 blocker = inhibitors of human TRPML1 channel. Q9GZU1. TRPML1-inducible cells, Ca2+ dye fluorescence, FDSS; stronger effect = lower value; inhibition of EC80 agonist-evoked calcium signal. activity change, negative = inhibition, % (no concentration beside the values). 390,000 compounds, 0.02% hits. AID 624415; in the data active means activity change below about -50%; inconclusive means about -30% to -50%; inactive means above about -30%;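 further: stimulus is agonist 54-4 at its EC80 concentration; on the % scale 0 is the no-effect control and ±100 the full control effect; compound concentration not given in the record; the text of the record puts the active cut at -80%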
#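 Calcium fluorescence in TRPML1-DL cells induced overnight with Tet: a 110 s read after compound pin addition, then a 110 s antagonist read after challenge with 54-4 at 4 uM final (EC80).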
# TRPV1 PAM = human TRPV1 potentiation; TRPV1-expressing cells, Fluo-8 calcium influx, capsaicin EC20 potentiation; host cell line not named in the record; control for the full effect not named in the record; potentiation, % at 8.33 µM; Q8NER1; 320,000 compounds, 0.02% hits; active means potentiation above 80%; inconclusive means 30% to 80%; inactive means below 30%; further: 0% is about no effect
# Target sequence (Q8NER1 whole entry, looked up): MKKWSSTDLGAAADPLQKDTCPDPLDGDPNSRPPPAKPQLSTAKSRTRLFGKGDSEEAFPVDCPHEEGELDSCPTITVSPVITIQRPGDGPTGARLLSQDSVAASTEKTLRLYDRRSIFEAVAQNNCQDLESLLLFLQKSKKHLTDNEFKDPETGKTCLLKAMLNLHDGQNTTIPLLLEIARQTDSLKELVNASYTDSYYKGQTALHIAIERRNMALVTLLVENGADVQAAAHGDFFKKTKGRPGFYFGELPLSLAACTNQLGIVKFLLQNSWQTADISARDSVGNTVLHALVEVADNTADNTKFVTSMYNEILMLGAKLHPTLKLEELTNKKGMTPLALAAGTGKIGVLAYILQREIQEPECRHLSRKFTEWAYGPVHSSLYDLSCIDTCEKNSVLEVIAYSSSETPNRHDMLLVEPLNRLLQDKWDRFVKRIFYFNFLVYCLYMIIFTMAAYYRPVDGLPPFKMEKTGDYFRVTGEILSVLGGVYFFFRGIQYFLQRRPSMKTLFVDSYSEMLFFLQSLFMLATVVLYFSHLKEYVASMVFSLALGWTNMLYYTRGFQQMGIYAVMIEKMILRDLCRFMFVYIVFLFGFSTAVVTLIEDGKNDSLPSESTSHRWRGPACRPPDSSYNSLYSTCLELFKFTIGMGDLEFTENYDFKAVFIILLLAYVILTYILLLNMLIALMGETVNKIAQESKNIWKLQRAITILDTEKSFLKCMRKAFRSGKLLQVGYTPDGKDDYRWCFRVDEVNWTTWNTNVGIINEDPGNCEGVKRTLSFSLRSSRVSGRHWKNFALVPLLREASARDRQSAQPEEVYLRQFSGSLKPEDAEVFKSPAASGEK
#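 Fluo-8 calcium influx in TRPV1-expressing cells, kinetic read (ex 480/em 520 nm). Compound added and read 3 min for agonist activity, followed by capsaicin at EC20 final and 2 min further read for enhancement.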
# Menin MLL FP FL = inhibitors of human menin-MLL interaction, wild-type MLL peptide; Fluorescence polarization, fluorescein-MLL peptide displacement from menin; FP activity change, % at 61.4 µM; 290,000 tested, under 10 active; AID 1766; inconclusive = falling polarisation curve, or a change in total fluorescence; inactive = total fluorescence flat and polarisation flat or rising; no compound was filed as active; the % refers to the polarisation; negative = inhibition;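 further: % of control where 0% means no effect; inhibitors lower the polarisation; unlabelled MLL peptide was the positive control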
# TRPML1 agonist = human mucolipin-1 channel agonism; 410,000 compounds, 0.12% hits; AID 624414; activation, % (no concentration beside the values); TRPML1-expressing cells, Ca2+ dye fluorescence, FDSS; host cell line not named in the record; reference of the full effect not given here; in the data active = activation above about 50%; inconclusive = about 30% to 50%; inactive = below about 30%; further: 0% is about no effect; the text of the record puts the active cut at 80%
#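 Cells: TRPML1-DL, 1X Tet inducer, ~16 h at 37 degrees C/5% CO2. Dye: ABD Ca8 no-wash + quencher, 45-90 min RT. Read: 10 s baseline, compound add, 110 s agonist phase; 54-4 EC80 (4uM final), 110 s antagonist phase.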
# * = called active by the depositor; ? = inconclusive; · = not tested or not shown; & = joins results of further samples; [ ] = another dose, or the depositor's remark.
cpd	molecule	TRPML1 agonist	PINK1 expr mod	ClpP mod	Menin MLL FP FL	TRPML1 blocker	TRPV1 PAM	Sfp inh
1	CCOC(=O)C1(C)CCCN1C(=O)c1ccc(C(=O)OC)cc1 (configuration not stated)	-0.1	0.3%	-0.7%	·	-13	·	·
2	CCCN(CCC)S(=O)(=O)c1cccc(C(=O)Nc2ccc3c(c2)OCO3)c1	2.5	-2.3%	-1.2%	1.9	39	-11	14%
3	COc1cc(-c2[nH]ncc2CN2CCN(Cc3cccs3)CC2)cc(OC)c1OC	-1.3	3.5%	0.4%	-0.4	8	7	8%
4	CCN(CCCNC(=O)COc1cc(=O)n(C)c2ccccc12)c1cccc(C)c1	3.7	-2.1%	-2.1%	0.3	9	-1	8%
5	Cc1ccc(S(=O)(=O)N2CCC(=O)N(CCOC(=O)NCc3ccccc3)CC2)cc1	0.3	0.0%	1.4%	-2.2	6	15	30%[activator]
6	Cc1cccc(COc2ccc(/C=C3/C(=O)N(C)C(=S)N3C)cc2)c1	0.7	6.1%	·	-6.0	30	-15	6%
7	COc1cccc(CNC(=O)c2[nH]c3cc(C)ccc3c2Sc2ccccc2)c1	-0.1	-0.5%	5.2%	·	8	·	·
8	Cc1ccc(C(=O)OCc2nnc(-c3ccccc3)o2)cc1S(=O)(=O)N1CCOCC1	2.1	-1.7%	-3.1%	·	-1	-6	·
9	Cc1ccc2nc(SC(C)C(=O)NCc3ccco3)[nH]c2c1 (configuration not stated)	3.5	7.1%	1.5%	1.7	7	-5	?
10	CCCOc1ccc(C(=O)Nc2ccc(CN3CCOCC3)cc2)cc1	0.4	-0.4%	0.7%	-0.2	9	-15	13%
11	COCc1cc(C)n(CC(=O)Nc2ccccc2C(=O)OC)c(=O)c1C#N	1.4	-1.4%	18µM*	1.7	3	13	20%
12	O=c1[nH]ncn1-c1ccccc1C(F)(F)F	0.2	-1.9%	-2.6%	-1.1	34	1	0%
13	O=S(=O)(NCCO)c1cccc2cccnc12	-0.1	-0.1%	-1.7%	2.4	-12	-5	30%[activator]
14	COc1ccc(NC(=O)CSc2cc(C(=O)c3nccn3C)c3ccccc3n2)cc1	3.3	-0.5%	·	3.2	39	?	-25%
15	CC(=O)Nc1ccc(NS(=O)(=O)c2ccc3ccccc3c2)cc1	1.9	-0.1%	-2.6%	5.9	-26	5	17%
16	CCc1nnc(NC(=O)c2ccc3c(=O)n4c(nc3c2)CCC4)s1	-0.5	1.1%	-1.6%	·	0	·	·
17	Cc1ccccc1C(=O)NCC(=O)OC(C)C(=O)Nc1cccc(S(=O)(=O)N2CCOCC2)c1 (configuration not stated)	-0.5	1.3%	5.8%	·	1	3	·
18	COc1cc(/C=N/NC(=O)COc2ccccc2C)ccc1OC(=O)c1cccs1	0.2	0.9%	-1.0%	4.3	20	29	10%
19	Cc1noc(C)c1C(=O)OCC(=O)Nc1ccc(N2CCOCC2)cc1	0.1	-0.1%	-2.6%	·	15	·	·
20	COc1cc(-n2c(=O)c3ccccc3n(Cc3cccc(Cl)c3)c2=O)cc(OC)c1OC	0.0	3.0%	-0.1%	·	-14	·	·
21	COC(=O)/C=C1\SC(=NC(=O)c2cccc([N+](=O)[O-])c2)NC1=O	-0.6	-2.6%	·	-1.8	-2	4	?
22	Clc1cccc(/C=N/Nc2ncnc3ccccc23)c1	0.8	0.1%	-0.5%	6.0	6	-19	-35%
23	C#CCn1c(S(=O)(=O)Cc2ccccc2Cl)nc(-c2ccccc2)c1-c1ccccc1	2.9	-2.5%	-6.5%	-3.2	-14	0	0%
24	Cc1cccc(NC(=S)NCc2ccco2)n1	1.0	0.8%	·	0.4	1	5	-28%
25	CCCCOC(=O)NC1CCS(=O)(=O)C1 (configuration not stated)	0.8	0.4%	-2.3%	4.8	8	-8	1%
26	COc1ccc(C(C(=O)NC2CCCCC2)N(Cc2ccco2)C(=O)c2ccccn2)c(OC)c1 (configuration not stated)	-0.6	2.7%	·	0.7	6	24	12%
27	Cc1onc(-c2ccccc2)c1C(=O)N1CCN(CCc2ccccc2)CC1	0.7	6.4%[38.3 µM]	-2.3%	-0.1	-20	-1	9%
28	C/C(CC1CC(COCC(C)C)OC1=O)=N\NC(N)=S (configuration not stated)	0.2	-0.4%	-1.2%	0.5	-12	-1	50µM*
29	CC(C)C(NC(=O)C1CCCCC1)C(=O)Nc1ccccn1 (configuration not stated)	-0.7	3.5%	0.5%	2.4	-1	0	17%
30	O=C(NCCCN1CCN(c2ccc(F)cc2)CC1)c1ccc2nc(Cc3ccccc3)oc2c1	1.3	2.8%	-1.9%	·	36	·	·
31	COc1cc(NC(=O)Cn2c(=O)n(CC3CCCO3)c(=O)c3cc(OC)c(OC)cc32)cc(OC)c1 (configuration not stated)	-0.5&-0.4	4.7%&2.0%	4.2%&4.1%	2.7	2&15	?	13%
32	C=CCN1c2ccc(Br)cc2C(=O)CS1(=O)=O	0.4&-0.4	-0.3%	-1.0%&-0.5%	·	-16	10	·
33	CCCCCOc1ccc(C(=O)C(c2ccccc2)N2CCOCC2)cc1 (configuration not stated)	3.9	1.9%	1.6%	0.7	21	0	-20%
34	O=S(=O)(Nc1cccc(-c2cn3cccnc3n2)c1)c1ccc(Cl)cc1	-0.4	3.0%	7.1µM*	10	8	7	5%
35	Cc1ccc(S(=O)(=O)N2C[C@@H]3[C@H]4CC[C@H](C4)[C@@H]3[C@@H](C)[C@@H]2c2ccco2)cc1	28	0.9%	-2.2%	·	-4	·	·
36	O=C(C1CCN(S(=O)(=O)c2ccc(Br)s2)CC1)N1CCN(c2ccc(F)cc2)CC1	1.7	-0.2%	-0.8%	·	-13	·	·
37	CN(C)CCCN1c2ccc(O)cc2Sc2ccc(Cl)cc21	0.1	1.7%	-0.8%	·	-4	·	·
38	CC(=O)C1=C(O)C(=O)N(c2nnn(C)n2)C1c1cccs1 (configuration not stated)	2.4	-3.1%	-0.9%	1.7	-9	·	-6%
39	Cc1c(NS(=O)(=O)c2ccc(Cl)c(C(=O)OC(C)C(=O)NCc3ccco3)c2)c(=O)n(-c2ccccc2)n1C (configuration not stated)	2.4	-1.7%	·	9.6	-12	17	-9%
40	O=C(NC1CCCC1)c1ccc(COCC(F)(F)C(F)F)o1	0.7	-1.3%[38.3 µM]	-2.9%	1.0	8	5	11%
41	CCOc1ccc(Nc2ccc(S(=O)(=O)N3CCOCC3)cc2[N+](=O)[O-])cc1	-0.2	0.3%	-1.2%	·	-1	·	·
42	CC(OC(=O)/C=C/c1ccc2ccccc2n1)C(=O)NCc1ccccc1 (configuration not stated)	0.4	5.6%	0.9%	·	1	-16	·
43	COC(=O)Cn1c(=O)n(CCc2ccccc2)c(=O)c2c3c(sc21)CCCC3	1.9	24%[38.3 µM]	-1.1%	-1.2	2	-10	-9%
44	CC1CCC(NC(=O)C2CCN(C(=O)NC3CCCCC3)CC2)CC1 (configuration not stated)	·	·	·	3.7	·	-5	-4%
45	C[C@H](NC(N)=O)C(=O)OCC(=O)NCc1cccs1	-1.2	-1.2%	-1.3%	0.2	49	4	5%

# Continued; it opens with the three that closed the last part.
cpd	molecule	TRPML1 agonist	PINK1 expr mod	ClpP mod	Menin MLL FP FL	TRPML1 blocker	TRPV1 PAM	Sfp inh
43	COC(=O)Cn1c(=O)n(CCc2ccccc2)c(=O)c2c3c(sc21)CCCC3	1.9	24%[38.3 µM]	-1.1%	-1.2	2	-10	-9%
44	CC1CCC(NC(=O)C2CCN(C(=O)NC3CCCCC3)CC2)CC1 (configuration not stated)	·	·	·	3.7	·	-5	-4%
45	C[C@H](NC(N)=O)C(=O)OCC(=O)NCc1cccs1	-1.2	-1.2%	-1.3%	0.2	49	4	5%
46	Cc1nc2cnc(Nc3ccccc3)nc2n(CCC#N)c1=O	·	?	·	-4.8	·	·	13%
47	Cc1csc(NC(=O)C2C3C=CC(C3)C2C(=O)O)n1 (configuration not stated)	0.1	9.3%[38.3 µM]	0.6%	-0.3	8	21	-15%
48	CCC(C)Sc1nc(O)cc(=O)[nH]1 (configuration not stated)	-0.3	-2.3%[38.3 µM]	2.4%	-0.4	9	-3	0%
49	Cc1cc(C(=O)NC(C)c2ccc3c(c2)OCO3)cs1 (configuration not stated)	0.9	-2.0%[38.3 µM]	0.3%	0.0	-10	-4	-2%
50	Cc1ccc(CNC(=O)COC(=O)c2cc(C)oc2C)cc1	-0.2	2.5%	-0.2%	·	-6	-37	·
51	CC(C)C[C@H](N)c1nnc(SCc2ccc(Cl)cc2)o1	1.0	1.7%	·	2.7	7	16	?
52	N/C(CCN1CCOCC1)=N/O	-1.1	-1.9%	-4.3%	-0.7	6	0	13%
53	c1ccc(-c2csc(Nc3ccccn3)n2)cc1	0.3	10%	·	6.4	-20	-9	-15%
54	Cc1ccc(CN(C(=O)Cn2nnc3ccccc32)C(C(=O)NCc2ccco2)c2cccs2)cc1 (configuration not stated)	1.9	2.7%	0.3%	2.0	-9	16	-8%
55	O=C(c1cc2ccccc2o1)N1CCN=C1SCc1cccnc1	0.5	-0.7%	-0.4%	-3.7	28	0	11%
56	CSCc1c(C(=O)NCCc2ccccn2)oc2ccccc12	-0.7	1.8%	·	-0.4	-9	1	20%
57	Cc1ccc(-n2c(SCC(=O)N3CC(=O)Nc4ccccc43)nc3ccccc3c2=O)cc1C	6.2	1.2%	-2.1%	2.8	-13	-13	-25%
58	Cc1[nH]c2ccc(C(=O)OC(C)C(=O)N(C)C3CCCCC3)cc2c1C (configuration not stated)	0.7	8.4%	-4.7%	·	-5	?	·
59	CC(=O)Nc1ccc(S(=O)(=O)NCC(=O)OCc2cc(=O)oc3ccc4ccccc4c23)cc1	1.3	-1.3%	0.2%	6.4	-21	-11	-25%
60	CCCCCc1cc(=O)oc2c(C(CCN3CCCC3)c3ccc4c(c3)OCO4)c(OC)cc(OC)c12 (configuration not stated)	0.8	·	·	17	1	·	40µM*
61	C=CCN1C(=O)C2(C(C(=O)c3ccc(C)o3)=C(O)C(=O)N2CCCN2CCOCC2)c2ccccc21 (configuration not stated)	-0.6	0.6%	0.6%	-4.1	0	1	17%
